# Screening results from PubChem BioAssay.
# BmaI1 enzyme: BmaI1 acyl-homoserine lactone synthase inhibition – biochemical, fluorescence intensity, with counterscreen (AID 720554); BmaI1 enzyme assay, fluorescence intensity; stronger effect = higher value; test concentration not given here; a few actives read low; strong numbers were not always called active; inhibition, %; 12,000 tested, 0.4% active;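 active means both replicates within 2 robust z-scores of the inhibited control and a quiet counterscreen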;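 further: 0% = uninhibited enzyme and 100% = inhibited control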
# BmaI1 enzyme counterscreen: recorded beside BmaI1 enzyme, whose call it bears; inhibition, %; measured here: counterscreen; design of the counterscreen not given here;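 first of two replicates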
# The depositor's hits bear a star. These rows are one share of the data; the hit share may differ from the screen's.
SMILES,BmaI1 enzyme,BmaI1 enzyme counterscreen
NC(=O)CSc1nc2sc3c(c2c(=O)n1C1CCCC1)CCCC3,13.5,9.0
CCn1c(=O)/c(=C\c2ccc(Cl)cc2)s/c1=C(/C#N)C(N)=O,5.0,-1.5
COC(=O)C1=C(C)NC(C)=C(C(=O)OC)C1c1ccccc1OCc1c(C)no[n+]1[O-],-46.5,-44.0
CC(Sc1nc(N)cc(N)n1)C(=O)c1ccc(Br)cc1 (configuration not stated),10.5,10.0
O=C(CCC(=O)c1cccs1)NC1=NCCS1,12.5,8.0
COc1ccc(OCC(=O)N2N=C(c3ccc(Cl)cc3)CC2c2ccco2)cc1 (configuration not stated),9.5,7.5
CSCc1c(C(=O)NCc2ccc3c(c2)OCO3)oc2ccccc12,19.0,8.5
CCCCN1CC(O)=C(c2nc(-c3ccc(Cl)cc3)cs2)C1=N,15.5,12.0
CCc1ccc(NC(=S)NCC(C)(C)N2CCOCC2)cc1,13.5,10.5
CCOc1ccccc1OC(C)C(=O)NC(C)(C#N)C(C)C (configuration not stated),20.5,0.0
Cc1cc(=O)[nH]c(SCC(=O)NC(C)C2CC3CCC2C3)c1C#N (configuration not stated),12.0,9.0
O=C(CCN1CCN(c2ccccc2)CC1)N/N=C1/CCCc2ccccc21,18.0,3.5
Cc1cc(C(C)(C)C)cc(C)c1CCN,11.5,7.5
Cc1noc(N)c1C(=O)OCc1c(F)cccc1Cl,21.5,0.0
CCCNC(=O)CN1CCN(c2nc(C)nc3scc(-c4cccs4)c23)CC1,19.0,5.5
NS(=O)(=O)c1cccc(-n2cnnn2)c1,-1.5,4.0
O=C(CSc1nnc(-c2ccco2)o1)NC(=O)C1COc2ccccc2O1 (configuration not stated),13.5,-9.0
O=C(c1cnn(-c2ccccc2)n1)N(CC1CCCO1)C1CCS(=O)(=O)C1 (configuration not stated),15.0,10.5
Cc1ccccc1NC(=O)Cc1nc(-c2cc(C)n(Cc3ccco3)c2C)cs1,-2.0,-3.0
N#CC(C(=O)NCc1ccccc1)c1nc2ccccc2nc1N1CCCC1 (configuration not stated),12.5,6.5
CCCOC(=O)c1ccc(NC(=O)CN(C)C)cc1,9.5,4.0
Oc1cc(Cl)ccc1Oc1ccc(Cl)cc1Cl,9.0,11.0
Cc1ccc(C)c(SCC(=O)Nc2ccc(-n3cnnn3)cc2)c1,-2.5,-1.5
CCC1(C)NC(=O)N(NC(=O)c2ccc(CSc3ncn[nH]3)cc2)C1=O (configuration not stated),7.0,8.0
O=C(CSc1ncccn1)NC(=O)NC1CCCCC1,8.5,4.5
O=C1CCCN1C(=O)CSc1nc2ccccc2n1CCc1ccccc1,1.0,-2.5
CCn1c2ccccc2c2cc(NC(=O)c3cccs3)ccc21,13.0,5.5
C=CCn1c(SCN2C(=O)c3ccccc3C2=O)nnc1C1CCCCC1,-10.0,-9.5
O=C(OCc1nnc(-c2ccccc2)o1)c1ccccc1NS(=O)(=O)c1ccc2c(c1)OCCO2,7.0,12.5
COc1ccc(C(=O)NCCc2ccccn2)cc1S(=O)(=O)NC1CCCC1,8.5,4.0
CC(NC(=O)COc1cccc(-n2cnnn2)c1)c1ccc2c(c1)OCO2 (configuration not stated),-2.0,1.5
Cc1ccc(C(=O)OCC(=O)Nc2ccc(N(C)C)cc2)c(C)c1,24.5,-7.5
Cc1nn(-c2ccccc2)c(C)c1C(=O)N(Cc1ccco1)Cc1cccs1,17.5,4.0
Cc1cc(C(=O)COC(=O)CN=C2NS(=O)(=O)c3ccccc32)c(C)n1C,18.0,8.0
COCCC1C(=O)c2c(n(Cc3ccccc3)c3nc4ccccc4nc23)N=C1C (configuration not stated),3.0,2.5
COc1cn(-c2ccccc2)nc1C(=O)OCc1ccc(C#N)cc1,6.5,1.5
C[C@]12CC[C@@H]3c4ccc(OS(=O)(=O)O)cc4CC[C@H]3[C@@H]1CCC2=O,0.0,6.5
CCCc1cc(=O)[nH]c(SCC(=O)N2CCCCCC2)n1,12.5,11.0
O=C(CSc1nnc(-c2ccc(Cl)cc2)o1)N1CCc2ccccc2C1,10.0,4.5
Cc1ccc(NC(=O)CN(C)C(=O)CSc2nc3ccc(Cl)cc3o2)cc1,6.0,-3.0
O=C(CSc1nnc(-c2ccccc2F)n1Cc1ccccc1)Nc1cccc2nsnc12,10.5,6.5
CC(C)Cc1ccc(CC(=O)O)cc1,66.5,7.5
CN(C(=O)CSc1ccc2c(c1)OCCO2)c1ccccc1,18.0,10.0
O=C(Nc1cccc(Cl)c1)C1=CC=CN2CCS(=O)(=O)N=C12,11.5,11.0
CCCCS(=O)(=O)NCc1ccc(OC)c(OC)c1,14.0,0.5
O=C1CCCCC1Sc1nnc(-c2ccco2)o1 (configuration not stated),12.5,7.0
CC(C)CCn1c(=O)c2ccccc2n2c(CSC(C)c3nc4ccccc4c(=O)[nH]3)nnc12 (configuration not stated),11.5,2.0
CCOC(=O)C1=C(C)Nc2[nH]c(=O)[nH]c(=O)c2C1c1ccccc1 (configuration not stated),0.0,1.5
O=C(NCC(F)(F)F)c1cc2ccccc2cc1O,14.0,26.5
N#Cc1ccc(C(=O)NCc2ccccc2)cc1,2.0,-12.5
# Next part:
SMILES,BmaI1 enzyme,BmaI1 enzyme counterscreen
CCCN(C(=O)[C@H](Cc1ccccc1)N1C(=O)c2ccccc2C1=O)C1CCS(=O)(=O)C1 (some centres not stated),-15.5,6.0
CC(C)CNC(=O)CSc1n[nH]c(-c2ccc(Br)cc2)n1,12.5,14.5
C=CCn1c(SCC(=O)Nc2ccccc2C(=O)NC2CCCC2)nnc1-c1ccoc1C,9.5,2.0
CC(C)n1c(SCC(=O)c2ccc3c(c2)NC(=O)CO3)nc2cc(Cl)ccc2c1=O,12.5,1.0
Cc1c(-c2ccccc2)nc2ccccc2c1C(=O)OCC(=O)N(C)C,0.5,-4.5
CNCC(O)c1ccc(O)c(O)c1 (configuration not stated),19.5,5.0
Cc1ccc(NC(=O)CSc2c(C)cc(=O)n(N)c2C)cc1C,9.0,2.0
COc1cc(/C=N/N2CCCCC2)ccc1OC(=O)c1cccnc1,41.0,14.5
CSc1nc2ccccc2n1CN(C)Cc1ccc(Cl)s1,12.0,8.5
CNCc1ccc(N2CCCC2)cc1,-21.0,2.5
O=C(c1cc(S(=O)(=O)N2CCCCC2)ccc1N1CCCC1)N1CC=C(c2ccccc2)CC1,14.0,6.0
CN(Cc1ccc(Br)cc1)S(=O)(=O)c1cccc(C#N)c1,7.5,2.5
O=C(c1ccco1)N1CCN(CC(=O)N(C2CCCCC2)C2CCS(=O)(=O)C2)CC1 (configuration not stated),13.0,10.0
O=C(/C=C/c1ccco1)OCc1cc(=O)n2c(n1)sc1ccccc12,18.5,11.5
COc1ccc(Nc2nnc(SCC3CCCO3)s2)cc1 (configuration not stated),49.5,2.0
Cc1noc(C)c1CSc1ccccc1C(=O)N1CCN(c2ccccc2)CC1,23.5,16.5
O=c1cc(CSc2ncccn2)c2cc3c(cc2o1)CCC3,2.0,-2.5
COc1ccccc1NC(=O)C(C)Sc1nc(C)cs1 (configuration not stated),12.0,2.5
O=C(O)CCCc1ccccc1,9.5,34.5
CCOc1ccc(C(C)NC(=O)c2c(C)noc2C)cc1OCC (configuration not stated),22.5,9.0
O=C(Nc1nccs1)c1cccc(S(=O)(=O)N2CCCC2)c1,8.5,3.5
COc1ccc(OC)c(C2C3=C(COC3=O)Nc3[nH]c(=O)[nH]c(=O)c32)c1 (configuration not stated),2.5,2.0
O=C(/C=C/Nc1ccc(S(=O)(=O)N2CCCCC2)cc1)C(F)(F)F,5.0,2.5
COC(=O)CC(=O)CSc1cc(C)c(C#N)c2nc3ccccc3n12,109.5,76.5
Cc1noc(C)c1CN1C(=O)NC2(CCCc3sccc32)C1=O (configuration not stated),15.0,9.5
CN1/C(=C\C(=O)CSc2nnc(-c3ccccc3)o2)C(C)(C)c2ccccc21,10.5,4.5
CNCc1ccc2ccccc2c1,-2.0,-2.0
CC1CN(C(=O)COC(=O)c2n[nH]c3ccccc23)CC(C)O1 (configuration not stated),14.5,12.5
O=C(COn1nnc2ccccc21)N1CCN(c2ccccc2)CC1,10.5,3.5
CCCCNC(=O)Sc1ccc2ccccc2c1,54.0,23.5
Cc1nn(C)c(C)c1/C=C/C(=O)N1CCCSc2ccccc21,17.5,5.5
COc1ccc2oc(C(=O)OCC(=O)N(C)C)c(C)c2c1,-8.0,-16.5
CSc1ncc(C(=O)NCc2ccc(S(N)(=O)=O)cc2)n1-c1ccccc1,17.0,12.5
COc1ccc(OCC(=O)N2CCC(C(N)=O)CC2)cc1,12.5,8.5
Cc1ccc(NC(=O)CN(C)C(=O)c2ccc(Br)o2)cc1,6.5,-3.5
CN(C(=O)CN1CCN(S(=O)(=O)c2ccc3c(c2)CCCC3)CC1)C1(C#N)CCCCC1,14.5,-2.0
Cc1cccc(OCc2nnc(SCc3nc4ccsc4c(=O)[nH]3)o2)c1,20.5,3.0
O=c1[nH]c(CNCC2CCCO2)nc2ccccc12 (configuration not stated),12.0,-0.5
CC1CC(C)(C)CC2(C1)NC(=O)NC2=O (configuration not stated),-2.5,2.5
C=CCn1c(C)cc(C(=O)CN(CC)CC(=O)NC2CCS(=O)(=O)C2)c1C (configuration not stated),6.5,4.0
CCCn1c(=O)c2c(=S)nc(-c3ccccc3OC)[nH]c2n(CCC)c1=O,16.5,17.0
O=C(NNc1ccc(S(=O)(=O)N2CCCCC2)cn1)Nc1ccc(Cl)c(Cl)c1,32.0,2.5
CN(C)CCCN1c2ccccc2Sc2ccc(Cl)cc21,-36.5,-35.0
CCC(C)N(Cc1nc2ccccc2c(=O)[nH]1)C(=O)/C=C/c1ccco1 (configuration not stated),15.5,12.0
O=S(=O)(c1ccc(OC(F)(F)F)cc1)N1CCN(S(=O)(=O)c2cccs2)CC1,10.0,1.5
O=C(CCCn1c(=O)oc2ccccc21)Oc1ccc2c(c1)OCO2,51.5,26.5
COc1ccc2c(CC(=O)OCC(=O)c3ccccc3)coc2c1,12.0,1.5
CCOC(=O)c1[nH]c(C)c(C(=O)OCc2nnc(-c3ccc(Cl)cc3)o2)c1C,2.0,0.5
CC(OC(=O)c1ccc2ccccc2n1)C(=O)N(C)c1ccccc1 (configuration not stated),1.0,2.5
CC(C)CN(CC(C)C)Cn1nc(-c2cccc(S(=O)(=O)N3CCOCC3)c2)oc1=S,18.0,5.5
# Next part:
SMILES,BmaI1 enzyme,BmaI1 enzyme counterscreen
COc1ccccc1N(C)S(=O)(=O)c1ccc(C(=O)N2CC(C)OC(C)C2)cc1 (configuration not stated),-0.5,9.0
CCCCn1c(SCC(=O)c2cc(C)n(C)c2C)nc2cc(S(N)(=O)=O)ccc21,4.5,-1.0
O=C(Nc1ccnn1Cc1cccs1)C(Sc1ccccc1)c1ccccc1 (configuration not stated),6.5,2.5
Cc1ccccc1C(=O)N1CCC(C(=O)Oc2ccc3c(c2)OCO3)CC1,24.0,7.0
COc1ccc(COCC(O)CN(C)Cc2ccc3c(c2)OCCO3)cc1 (configuration not stated),5.0,4.0
O=C(CC1SC(N2CCCC2)=NC1=O)Nc1ccc(C(=O)N2CCN(c3ccccn3)CC2)cc1 (configuration not stated),9.0,14.0
COc1ccccc1NC(=O)/C=N/OCc1nc2sc(C)c(C)c2c(=O)[nH]1,12.5,10.0
Nn1cc(-c2ccccc2)[nH]c1=S,104.0,52.0
CCCCN(CC)c1ncnc2sc3c(c12)CCC3,17.0,5.0
Cc1onc(-c2ccccc2)c1-c1ccc(S(N)(=O)=O)cc1,10.5,14.0
C=CCN1C(=O)c2ccc(C(=O)O)cc2C1=O,5.5,1.0
CCCc1cc(=O)oc2cc(OCn3nnc4ccccc4c3=O)ccc12,19.5,2.0
OCN1C2=NCN(Cc3ccc(Cl)cc3)CN2c2ccccc21,-1.5,7.0
Cc1cc(C)c2c(-n3cccc3)c(C(=O)OC3CC(C)OC3=O)sc2n1 (configuration not stated),16.0,10.5
O=C(C1=COCCO1)N1CCN(S(=O)(=O)c2cccc(Cl)c2Cl)CC1,9.0,-1.0
O=C(/C=C/c1ccc2ccccc2n1)OCC(=O)c1ccc2c(c1)OCO2,8.5,4.5
O=C1CCN(C(=O)c2ccc(C(=O)c3ccccc3)cc2)CC1,15.0,16.5
